Compound activity: PubChem BioAssay, National Center for Advancing Translational Sciences (NCATS)
2A Renilla: lowers the Renilla signal of an FMDV 2A StopGo reporter; HEK cells with a luciferase reporter of 2A StopGo recoding; AID 1745857; Potency, µM (highest dose often 57.5 µM), without a hit: at the highest dose signal change, negative = less light; 120,000 compounds, 0.32% hits; active means well fitted falling curve with a large enough effect; inconclusive means small, poorly fitted or top-dose-only effect; inactive means no such curve, though single readings can be large or run the other way; note: nearly all actives have a fitted effect of over 55% in size; overnight with compound
2A firefly: FMDV 2A StopGo reporter, firefly signal; HEK cells with a luciferase reporter of 2A StopGo recoding; Potency, µM (highest dose often 57.5 µM), without a hit: at the top dose signal change, negative = less light; 120,000 compounds, 0.23% hits; active = well fitted falling curve with a large enough effect; inconclusive = small, poorly fitted or top-dose-only effect; inactive = no such curve, though single readings can be large or run the other way; note: nearly all actives have a fitted effect of over 60% in size; overnight with compound
Numbers without * were called inactive; ? = inconclusive; & = joins results of further samples; [ ] = remark or other dose. % is set by controls: 0 for no effect and ±100 for the full control effect; potency is the fitted concentration of half-maximal effect. The list is partial (hit frequency here may not be typical).

canonical_smiles | 2A Renilla | 2A firefly
O=C(NCCN1CCCCCC1)c1n[nH]c(=O)c2ccccc12 | -8% | -6%
Cc1ccc(NC(=O)CN2C(=O)CCc3cc(S(=O)(=O)N4CCOCC4)ccc32)cc1N(C)C | -6% | -9%
CC(Sc1ncnc2nc[nH]c12)C(=O)NCCc1c[nH]c2ccc(F)cc12 (stereo unspecified) | -12% | -12%
CCN(CC)CCN(C(=O)c1ccco1)c1nc2cc(C)cc(C)c2s1 | -17% | -4%
O=C(NCc1nc(-c2ccc(Cl)cc2)no1)c1cc2ccccc2o1 | 5% | 11%
NS(=O)(=O)c1cc2c(cc1C(F)(F)F)NCNS2(=O)=O | 2% | 5%[11.5 µM]
CC1CCC(NC(=O)c2ccc(Cl)nc2)CC1 (stereo unspecified) | 4% | 54%[activator]
CC(c1nc2ccccc2s1)N(C)S(=O)(=O)c1ccccc1 (stereo unspecified) | 0%[1.06 µM] | 13%
COC(=O)CSc1nc2ccccc2c(=O)n1-c1ccccc1OC | -5% | 5%
Cc1nc(-c2ccc(C)c(S(=O)(=O)N3CCCCCC3)c2)cs1 | 0% | -16%
COc1ccc(OCC(=O)N(Cc2sccc2C)C2CCS(=O)(=O)C2)cc1 (stereo unspecified) | 5% | 20%
Cc1cc(C)n(-c2nc3ccccc3nc2Nc2ccc(Cl)c(C(=O)OC(C)C)c2)n1 | -9% | -7%
CCc1nc2ccccc2n2c(-c3ccc(C)cc3)c3c(=O)n(C)c(=O)n(C)c3c12 | -13% | -16%
Cc1ccc(C(=O)C(C#N)C(=O)NC2CCCCC2)cc1C (stereo unspecified) | 0% | 0%
CC1CCN(C(=O)c2cc3c(=O)n(C)c4ccccc4c3s2)CC1 | 138%[activator] | 59%[activator]
Cc1cc(C)cc(C(=O)Nc2ccc(C(=O)N(C)C)cc2)c1 | 1%[1.06 µM] | 55%[activator]
COc1ccc(-c2csc(-c3c(N)c(C(=O)c4ccc(OC)c(OC)c4)n4ccccc34)n2)cc1 | -8% | 9%
CC(Sc1nc2ccccc2s1)C(=O)NC1(C#N)CCCCC1 (stereo unspecified) | 49%[activator] | 20%
COc1cccc(CNS(=O)(=O)c2cc3[nH]c(=O)c(=O)[nH]c3cc2C)c1 | -8% | 5%
O=C(CSc1nc2ccccc2n1C(F)F)c1ccc(F)cc1F | 11% | 0%
CCCC12CN3CC(C)(CN(C1)C3c1c(C)[nH]c(=O)[nH]c1=O)C2=O (stereo unspecified) | -11% | -8%
COc1ccccc1OCc1nc(C#N)c(N2CCN(C)CC2)o1 | 28% | 5%
COc1cc(OC)c(OC)cc1/C=C/C(=O)c1ccc(OC(F)F)c(OC)c1 | -18% | 8%
COC(=O)c1cc(C)nc2onc(-c3ccc(F)cc3)c12 | 10% | 9%
COC(=O)c1ccc(NC(=O)CN2C(=O)CC(c3ccccc3)Sc3ccccc32)cc1 (stereo unspecified) | -6% | 56%[activator]
Cc1cc(Cl)ccc1OCC(=O)N(Cc1sccc1C)CC1CCCO1 (stereo unspecified) | 73%[activator] | -25%
Cc1ccc(Nc2c(-c3ccsc3)nc3cccc(C)n23)cc1 | -20% | -23%
Cc1nnc2sc(-c3ccc(CNC(=O)C(C)(C)Oc4ccc(Br)cc4)cc3)nn12 | 6% | -11%
COc1cccc(-c2cc(C(=O)O)c3ccc(C)c(C)c3n2)c1 | 7% | 0%
CCCCCCCCSCC(N)=O | 14% | 23%

In the list so far, these contain a carbonyl joined to an NH by a bond outside any ring.
canonical_smiles | 2A Renilla | 2A firefly
O=C(NCCN1CCCCCC1)c1n[nH]c(=O)c2ccccc12 | -8% | -6%
Cc1ccc(NC(=O)CN2C(=O)CCc3cc(S(=O)(=O)N4CCOCC4)ccc32)cc1N(C)C | -6% | -9%
CC(Sc1ncnc2nc[nH]c12)C(=O)NCCc1c[nH]c2ccc(F)cc12 (stereo unspecified) | -12% | -12%
O=C(NCc1nc(-c2ccc(Cl)cc2)no1)c1cc2ccccc2o1 | 5% | 11%
CC1CCC(NC(=O)c2ccc(Cl)nc2)CC1 (stereo unspecified) | 4% | 54%[activator]
Cc1ccc(C(=O)C(C#N)C(=O)NC2CCCCC2)cc1C (stereo unspecified) | 0% | 0%
Cc1cc(C)cc(C(=O)Nc2ccc(C(=O)N(C)C)cc2)c1 | 1%[1.06 µM] | 55%[activator]
CC(Sc1nc2ccccc2s1)C(=O)NC1(C#N)CCCCC1 (stereo unspecified) | 49%[activator] | 20%
COC(=O)c1ccc(NC(=O)CN2C(=O)CC(c3ccccc3)Sc3ccccc32)cc1 (stereo unspecified) | -6% | 56%[activator]
Cc1nnc2sc(-c3ccc(CNC(=O)C(C)(C)Oc4ccc(Br)cc4)cc3)nn12 | 6% | -11%
CCCCCCCCSCC(N)=O | 14% | 23%

More results:
canonical_smiles | 2A Renilla | 2A firefly
COc1ccc(C(C)=O)cc1COC(=O)c1cccc(Br)c1 | 8% | 3%
O=C(NCCCN1CCc2ccccc2C1)c1ccccc1C(F)(F)F | 5% | 6%
COc1cc(NC(=O)c2cc3c(=O)oc4ccc(C)cc4c3s2)cc(OC)c1OC | -2% | -5%
CCC(=O)N1CCN(c2nc3c(C)cccc3s2)CC1 | 11% | 84%[activator]
Oc1ccc2c(c1)Oc1ncn3nc(COc4ccccc4)nc3c1C2c1ccccc1 (stereo unspecified) | -15%&-3% | -9%&2%
CCOc1ccc2nc(N3CCCC(C(=O)Nc4cc(Cl)c(OC)cc4OC)C3)sc2c1 (stereo unspecified) | -20% | 42%
Cc1cc(O)c(C(C)C)cc1Cl | -1% | -7%[11.5 µM]
CCCC(=O)Nc1nnc(SCc2cc(=O)n3ccccc3n2)s1 | 0% | -8%
Cc1ccc(C)c(Sc2ccc(NC(=O)c3ccc(C)c(C)c3)cc2)c1 | ? | -17%
O=S1(=O)C=C(Sc2nn(-c3ccccc3)c(=S)s2)c2ccccc21 | -21% | 9%
CC1=C(c2ccc(C(C)C)cc2)S(=O)(=O)N=C1N1CCC(C(=O)Nc2ccc(C)cc2)CC1 | -4% | -8%
O=C(COc1cc(O)c2c(=O)cc(-c3ccccc3)oc2c1)Nc1cccc(O)c1 | 0% | 0%
CCOc1ccc(NC(=O)c2ccc3c(c2)NC(=O)CS3)cc1OC | 11% | 15%
CC(C)(C)C(=O)Nc1nnc2n1CCS2 | -10% | -10%
CCc1ccc(N2CC(c3nc4ccccc4n3CC(=O)N3CCC(C)CC3)CC2=O)cc1 (stereo unspecified) | -12% | -1%
COC(=O)CCCNC(=O)c1ccccc1CSc1nc2ccccc2o1 | 9% | 24%
CCOc1ccc(-c2c(C)nn3c(C)c(C(=O)Nc4cccc(Cl)c4C)cnc23)cc1OCC | -6% | -16%
COC(=O)C1(NC(=O)c2cc(Cl)ccc2Cl)CCCCCC1 | -5% | -11%
COc1ccc(-c2csc3nc(-c4ccc(Cl)cc4)oc(=O)c23)cc1 | -11% | -10%
CCN1C(=O)C(Cc2ccc(OC)cc2OC)c2ccccc21 (stereo unspecified) | 26% | 3%
COc1ccc(C(=O)COC(=O)CCCC(=O)Nc2cc(C(F)(F)F)ccc2Cl)cc1 | -9% | 5%
COc1cc(C(=O)NCc2ccc(OCCN(C)C)cc2)cc(OC)c1OC | 3% | -1%
CCc1ccc(-n2cc(C(=O)N3CCC(NC(=O)OC(C)(C)C)CC3)nn2)cc1 | -14% | -5%
C(#CCN1CCCC1)CC(c1ccccc1)c1ccccc1 | 14% | 185%[activator]
Cc1ccc(Cn2c(=O)c3c(nc4n3CCN4c3cc(C)cc(C)c3)n(C)c2=O)cc1 | -13% | -15%
O=C(CSc1n[nH]c(-c2ccccc2Br)n1)Nc1ccc2c(c1)OCO2 | 56%[activator] | 2%
CNC(=O)/C=C(/O)c1ccccc1 | 10% | -2%
CCCCn1cnc2c1c(=O)n(CC(O)c1ccccc1)c(=O)n2CC(C)C (stereo unspecified) | 9% | -6%
O=C(NCCc1ccccc1)c1cnc2sc(N3CCCCCC3)nn2c1=O | 2% | 39%[activator]
COc1cccc(/C=C(\C#N)C(=O)Nc2ccc(NC(C)=O)cc2)c1OC | -3% | 9%
CSc1nccc(-c2cccs2)n1 | 9% | 0%
O=S(=O)(c1ccccc1)c1nnn2c1nc(Nc1ccccc1)c1cc(Cl)ccc12 | -25% | 0%
COC(=O)c1cccc(NC(=O)C2CCCN(C(=O)c3ccc(OC)c4ccccc34)C2)c1 (stereo unspecified) | 37%[activator] | -18%
CCOC(=O)c1c(Nc2ccc(C)cc2)nnc(-c2ccccc2)c1-c1ccccc1 | -7% | 2%
Cc1cc2oc(=O)cc(CN3CCOCC3(C)C)c2cc1C(C)C | 69%[activator] | 78%[activator]
C/C(=N/Nc1cc(C(F)(F)F)ccc1Cl)c1cccc(Br)c1 | 0% | -4%
CC(C)CCNC(=O)c1cn(C)c2ccc(S(=O)(=O)N3CCOCC3)cc2c1=O | -4% | 0%
CCNC(=O)CN1CCN(C(C(=O)O)c2c[nH]c3ccccc23)CC1 (stereo unspecified) | -5% | 0%
COc1ccc(-c2coc3cc(OC(=O)C(C)(C)C)ccc3c2=O)cc1OC | -4% | 175%[activator]
Cc1cc(C(=O)C(C)Sc2nnnn2Cc2cccs2)c(C)n1Cc1ccco1 (stereo unspecified) | 34%[activator] | 7%
CCOc1ccccc1CNC(=O)c1ncoc1-c1cccc(C)c1 | 4% | 1%
COc1ccc(-n2ccnc2SCC(=O)Nc2ccc3c(c2)OCO3)cc1 | -1% | -14%
COC(=O)C1(C)Cc2ccc(Cl)cc2C(=O)O1 (stereo unspecified) | 3% | 0%
COc1ccc(OCC(=O)N(Cc2cccc(OC)c2)C2CCS(=O)(=O)C2)cc1 (stereo unspecified) | -2% | -17%
CCc1cccc(C)c1NS(=O)(=O)c1cc(-c2cc(C)no2)ccc1C | 2% | -9%
O=S1(=O)c2ccc(N3CCSCC3)cc2Oc2ccccc2CN1Cc1cn(Cc2ccc(C(F)(F)F)cc2)nn1 | 167%[activator] | 1%
CCOC(=O)c1cccc(NC(=O)c2cc3sccc3n2Cc2ccc(Cl)cc2)c1 | 4% | 92%[activator]
CN(C)c1ccc(-c2nc3ccc(Cl)cn3c2Nc2ccc3c(c2)OCCO3)cc1 | -8% | 239%[activator]
CCOc1ccc(NC(=O)c2c(Nc3ccc(OC)cc3OC)sc(C(=O)c3ccc(Cl)cc3)c2N)cc1 | -4% | -4%
Cc1ccc(C(=O)Nc2ccc(C(=O)N(C)C)cc2)cc1 | 8% | 236%[activator]
Cn1c(=O)[nH]c(=O)c2c1nc(CN1CCN(c3ccccc3)CC1)n2Cc1c(F)cccc1Cl | -9% | -13%
CCOC(=O)c1c(C)c(CCC(=O)NCCN2CCN(CC)CC2)c(C)n1C | -18% | -23%
O=C(NCc1ncc(-c2ccccc2)o1)c1ccc(F)cc1 | 37%[activator] | 137%[activator]
COCCN(Cc1ccccc1)C(=O)c1cc2ccccc2oc1=O | 51%[activator] | -1%
COC(=O)c1ccc(-n2nnc(-c3nc(-c4ccc5c(c4)OCO5)no3)c2C)cc1 | -9% | -9%
Cc1cc(C)cc(NC(=O)C2CCCN(c3nnc(-n4c(C)ccc4C)s3)C2)c1 (stereo unspecified) | ? | -2%
COc1ccc(Br)c2c1-c1nc(NC(=O)c3ccccc3SC)sc1C2 | -8% | 18%
O=[N+]([O-])/C=C\c1c[nH]c2ccccc12 | -6% | 10%
Cc1nc2ccccc2c(C)c1CC(=O)NC(C)(C)C | -4% | 13%
CCCc1nc2nc(C)cc(Nc3ccccc3)n2n1 | -1% | 17%

Continued.
canonical_smiles | 2A Renilla | 2A firefly
CCOC(=O)c1c(S(=O)(=O)NCC(=O)N2CCN(c3cc(C)ccc3C)CC2)c(C)n(C)c1C | 14% | -12%
N#Cc1c(O)ccc(O)c1C#N | 14% | 17%
COc1ccc(NC(=O)CSc2nc3cc(C)[nH]c3c(=O)n2C)cc1Cl | 8% | 2%
CCC1(CC)C(=O)C=CNC1=O | -11% | -13%[11.5 µM]
O=C(Nc1ccccc1F)c1ccc(-c2ccccc2)cc1 | 0% | 168%[activator]
CC(C)n1ncc2cc(NC(=O)C3CCN(S(=O)(=O)c4ccccc4)CC3)cnc21 | 1% | 0%
CC(C)(C)NC(=O)/C(=C/c1ccc(-c2ccc(Br)cc2)o1)NC(=O)c1ccccc1 | 24% | 21%
CCCn1c(=O)[nH]c(=O)c2c1nc(-c1ccc(OC)c(O)c1)n2CCN1CCOCC1 | 10% | 11%
O=C(CSc1ccc2ccccc2n1)N(C1CCCC1)C1CCS(=O)(=O)C1 (stereo unspecified) | -24% | -14%
O=C(NC1=N[C@@]2(C=C3CCCCC3n3c(=O)n(-c4ccccc4)c(=O)n32)CN1Cc1ccccc1)c1ccccc1 (stereo partly specified) | 9% | 2%
Cc1ccc(CN2CCN(Cc3ccc(F)cc3)CC2)cc1 | 8% | 9%
CC1CCc2nc3ccc(S(=O)(=O)N4CCC(C(=O)NCc5ccccc5Cl)CC4)cc3c(C(=O)O)c2C1 (stereo unspecified) | -16% | 20%
Cc1cccc(NCc2nnc3n2CCCCC3)c1C | -1% | 9%
COc1cccc(N2C(=O)N(Cc3ccc(C#N)cc3)c3ccccc3S2(=O)=O)c1 | 28% | 5%
Cc1cc(-n2c(C)cc(C(=O)CSc3nnc(COc4ccc(Cl)cc4)o3)c2C)no1 | 2% | 12%
COc1ccc(CNC(=O)c2cc(-c3ccc(C)c(C)c3O)n[nH]2)cc1 | 96%[activator] | 57%[activator]
